# BasE inh: BasE siderophore enzyme inhibitors, primary screen, biochemical, Acinetobacter baumannii ATCC 17978, fluorescence polarization. purified BasE, fluorescence polarization binding displacement. inhibition, % (no concentration beside the values). 0.1% of 84,000 active;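 active = both replicates above 25% with normal brightness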;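 also: 0% = negative plate control signal and 100% = positive plate control signal; stock transfer was 100 nL into about 30 µL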
# LANA-nucl inh: inhibitors of KSHV LANA-nucleosome binding, primary screen, biochemical, fluorescence polarization, FITC-LANA1-23, chicken nucleosomes; FITC-LANA1-23 / chicken nucleosome fluorescence polarization; stronger effect = lower value; z-score (concentration not given with the values); 0.3% of 51,000 active;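 active = both repeat wells score below -2 in polarization z-score versus plate sample wells, excluding overly bright wells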;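 also: 100 nL library stock added to about 30 µL; numbers are from one replicate; some results filed as inactive read as strong as hits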
#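 Assay system: purified chicken nucleosomes with FITC-labelled LANA N-terminal peptide (1-23) / Probe or stimulus: 50 nM FITC-LANA1-23 probe / Compound dosing: pin-transferred compound, 100 nL / Times: compound with peptide–nucleosome mix 10–45 min at room temperature / Technique: fluorescence polarization, 480 nm excitation, 535 nm parallel and perpendicular emission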
# * marks the source's active call; other numbers are inactive results; nt = no result given. Not all compounds are listed. The share of hits here may be higher or lower than overall.
canonical_smiles	BasE inh	LANA-nucl inh
O=C(CSc1nnc(-c2ccncc2)o1)N1CCCc2ccccc21	0.3	nt
O=C(CSc1ncc(-c2ccccc2)n1Cc1ccco1)Nc1cccc(I)c1	1.7	-0.4
Cc1ccc(S(=O)(=O)N2C(=S)SCC2(C)C)cc1	-1.3	-0.46
CC(Oc1ccccc1)C(=O)NCc1ccccn1 (stereo not given)	1.3	0.68
CC(=O)NC1C(OC(C)C)OC(CO)C(O)C1O (stereo not given)	1.1	nt
O=C(c1ccco1)N1CCN(C(=O)c2ccco2)CC1	0.1	-0.01
O=C(CC1S/C(=N\N=C2\CSC(=O)N2)N(Cc2ccco2)C1=O)Nc1ccc(Br)cc1 (stereo not given)	-1.1	nt
C=CCn1c(SCC(O)Cn2c3ccccc3c3ccccc32)nnc1-c1ccco1 (stereo not given)	2.0	0.4
Cc1ccc(-n2c(Sc3ncccc3C#N)nnc2N2CCOCC2)cc1	-0.2	nt
Cc1ccc2c(c1)oc(=O)n2CC(=O)c1ccccc1	-0.1	nt
COc1cc(C(=O)NCC(c2cccnc2)N2CCN(C)CC2)cc(OC)c1OC (stereo not given)	-0.3	-0.68
O=S1(=O)CC(N2CCOCC2)c2ccccc21 (stereo not given)	1.4	-0.92
O=C(NCCCN1CCOCC1)c1cc2ccccc2cc1O	0.2	nt
CC(NC(=O)c1ccccc1NC(=O)c1ccccc1)C(=O)NCc1ccco1 (stereo not given)	-2.3	0.31
CCCCn1c(Cc2ccccc2)nnc1SCC(=O)NC	-1.1	0.64
CCOC(=O)c1cc(-c2ccc(Cl)s2)[nH]n1	-2.3	0.66
COc1cc2c(cc1/C=C/C(=O)O)OC(C)C2 (stereo not given)	1.6	nt
CC(=O)Nc1ccc(S(=O)(=O)Nc2nc3ccccc3nc2Nc2ccc(C(=O)O)c(O)c2)cc1	4.9	nt
Cc1cccc(-n2c(=S)n(CN3CCCC3)c3ccccc32)c1	0.0	nt
Cc1occc(=O)c1OCc1ccc(Cl)cc1	1.8	-0.75
COC(=O)c1ccccc1NC(=O)COCc1cc(-c2ccc3c(c2)OCO3)on1	0.9	0.24
O=C(O)c1cccc(=S)[nH]1	-1.0	nt
CC1(C)CC(CC(=O)N2CCOCC2)(c2ccccc2)CCO1 (stereo not given)	2.1	nt
Cc1ccc(Cl)c(NC(=O)Cn2c(N)nc(C#N)c2C#N)c1	4.4	nt
CC(C)(C)c1cc(/N=C/c2c(O)[nH]c(=O)[nH]c2=O)n(-c2ccccc2)n1	2.4	nt
CN(C)S(=O)(=O)N1CCC(c2nc3ccccc3[nH]2)CC1	1.2	0.85
Nc1cc(=O)n2c(n1)SCC(O)C2 (stereo not given)	2.5	-0.22
NC(=O)CN1C(=O)/C(=c2\sc3nc(-c4cccs4)nn3c2=O)c2ccccc21	2.4	-0.24
NC(=O)c1ccsc1NC(=O)C1CC2C=CC1C2 (stereo not given)	-0.3	nt
COc1cc(N(C(=O)Cn2nnc3ccccc32)C(C(=O)NCC2CCCO2)c2cccn2C)ccc1-n1cnnn1 (stereo not given)	-3.1	1.9

# No new results follow: an excerpt of the list.
canonical_smiles	BasE inh	LANA-nucl inh
O=C(NCCCN1CCOCC1)c1cc2ccccc2cc1O	0.2	nt
CC(NC(=O)c1ccccc1NC(=O)c1ccccc1)C(=O)NCc1ccco1 (stereo not given)	-2.3	0.31
CCCCn1c(Cc2ccccc2)nnc1SCC(=O)NC	-1.1	0.64
CCOC(=O)c1cc(-c2ccc(Cl)s2)[nH]n1	-2.3	0.66
COc1cc2c(cc1/C=C/C(=O)O)OC(C)C2 (stereo not given)	1.6	nt

# More entries.
canonical_smiles	BasE inh	LANA-nucl inh
O=C1Cc2cc(C(=O)CSc3nnc(CN4CCCC4=O)o3)ccc2N1	0.2	nt
O=C1NCCN1C(=O)NC1CCCCC1	1.0	-0.32
N#C/C(=C/c1ccc(-c2cccc(C(F)(F)F)c2)o1)c1ccc(C(=O)O)cc1	3.4	0.14
CSc1ccc(/C=N/NC=O)cc1	-1.6	nt
O=C1NC(c2cccs2)Nc2sc3c(c21)CCCC3 (stereo not given)	-2.8	1.8
O=C(COC(=O)c1ccc(S(=O)(=O)C(F)F)cc1)c1ccc(F)c(F)c1	2.8	nt
NC(=O)C1CCCN1 (stereo not given)	3.1	nt
CC(C)C(=O)Nc1ccc2oc(-c3cncc(Br)c3)nc2c1	-1.4	nt
COc1cc(CNC(=O)c2ccc(N(C)C)cc2)cc(OC)c1OC	-0.1	nt
Cc1cccc(C(=O)OCCSc2nc(C)c3cc(C)c(C)cc3n2)c1	2.5	nt
C=CCOc1cccc(CNc2cccc(C(=O)O)c2)c1	3.2	-1.4
FC(F)(F)c1cccnc1N1CCN(Cc2ccc[nH]2)CC1	nt	-0.59
CN=CC1=C(O)c2ccccc2C1=O	3.0	nt
O=C(Cn1nc(C(F)(F)F)c2c1CCC2)NC1CCCC1	3.6	-0.49
O=C(CN1CCCCC1)N(c1ccccn1)c1ccccn1	-3.8	nt
O=c1c(Cl)c(NCc2ccco2)cnn1Cc1ccccc1	-0.2	-2
O=c1c2c(nc3nc[nH]n13)CCC2	2.9	0.17
CNC(=O)c1c(C)nc(SCC(=O)N2CCCC2=O)c(C#N)c1-c1ccco1	0.5	nt
O=C(O)/C=C/c1cnn(Cc2ccccc2)c1	-0.7	nt
CCN(C(=O)c1ccc(Cl)cc1)c1ccccc1C	-1.0	-1.1
O=C(Cc1ccc(Cl)cc1)N1CCN(c2ccccc2)CC1	-3.7	1.7
CCOC(=O)c1c(C)n(O)c2ccc3nonc3c12	3.4	nt
COc1ccc2[nH]c3c(=O)n(CCCN(C)C4CCCCC4)cnc3c2c1	-8.0	1.9
CSc1ccc([C@H]2[C@H](C(=O)O)CC(=O)N2Cc2ccccc2)cc1	-1.2	1
c1ccc2[nH]c(SCCN3CCOCC3)nc2c1	1.6	nt
O=c1nc(-c2ccccc2)c2cc(Br)ccc2[nH]1	3.4	-0.6
O=C(CC1C(=O)Sc2[nH]c(=O)sc21)c1ccc(F)cc1 (stereo not given)	14	nt
COc1cc(/C=C/C(=O)O)cc(S(=O)(=O)Nc2ccc3[nH]c(=O)[nH]c3c2)c1OC	-1.8	nt
O=C(NCCC1=CCCCC1)C1CCCCC1	2.7	0.026
Cc1ccc(N2C(/N=C3\N=c4[nH]c5ccccc5c4=N3)=NC23C(=O)Nc2ccccc23)cc1C (stereo not given)	-36	0.47
O=S(=O)(Nc1ccccc1)c1ccc2c(c1)OCCO2	-1.3	nt
CCOc1ccc(C(=O)Nc2cccc(NC(=O)c3ccccc3)c2)cc1Br	-0.4	nt
CC(=O)Nc1ccc(/C=N/N2C(=O)c3ccccc3C2=O)cc1	0.7	nt
COC(=O)CN1C=C(C(=O)OC)C(c2ccc(Cl)cc2)C(C(=O)OC)=C1	-0.6	nt
CCN(CC)S(=O)(=O)c1cccc(-c2nnc(SCC(=O)Nc3cc(C)ccc3C)o2)c1	-0.9	nt
CC1=CC(=C2C(=O)NC(=S)NC2=O)C=C(C(F)(F)F)O1	-0.3	0.017
Nc1c(C(=O)C2CC2)oc2ccccc12	3.5	-0.052
Nc1nc(-c2ccc(Cl)cc2)c(N=Nc2ccc(S(=O)(=O)N3CCOCC3)cc2)s1	-1.6	nt
S=C(NC1CCCCC1)N1CCn2c(nc3ccccc32)C1	2.5	-0.26
CC(C)CNc1ncnc2onc(-c3cccc(Cl)c3)c12	-2.7	0.47
COc1cc(S(=O)(=O)N2CCN=C2c2ccccc2)ccc1F	4.2	0.18
COc1cc(OC)c(OC)cc1CN(C)C1CCN(C)CC1	-0.3	-1
COc1ccccc1NC(=O)C1OCCc2ccccc21 (stereo not given)	-0.2	-0.025
Cc1nc2c([nH]c3ccc(Br)cc32)s1	1.5	-0.69
Cc1nc2[nH]c(=S)[nH]c2cc1Br	-2.1	0.75
CCOC(=O)c1cnc2c(c(C)nn2C)c1Sc1nnc(SC)s1	0.7	nt
CCc1sc(C(=O)O)cc1C	-1.8	0.075
N#CCSc1cccc2cccnc12	-5.5	0.15
Nc1nonc1C(=O)N1CCCC1	-1.7	1.9
COc1ccccc1NCc1ccccc1Oc1ccc(S(=O)(=O)N2CCCC2)cn1	1.3	nt
COc1ccc(COCC(O)CNC2CCC(C)CC2)cc1 (stereo not given)	-0.8	nt
CC(Sc1ccc2nnc(-c3cccnc3)n2n1)C(=O)O (stereo not given)	3.0	0.42
COc1ncnc(OC)c1C	0.3	nt
COc1cc2c(cc1NC(=O)COCC(=O)O)oc1ccccc12	3.4	-1.3
COc1ccccc1NC(=O)COc1ccc2oc3c(c2c1)CCCC3	1.8	nt
COC(=O)c1cc(CN2c3cccc4cccc(c34)S2(=O)=O)oc1C	0.9	nt
O=C(COc1ccc(Cl)cc1)Nc1nonc1NC(=O)COc1ccc(Cl)cc1	-3.7	-0.14
Cc1ccc(S(=O)(=O)Nc2nc3c(s2)C(=O)CC(C)(C)C3)cc1	-2.3	0.91
O=C(Nc1nc2ccccc2s1)C1CCCO1 (stereo not given)	-4.3	-0.25
COc1ccc(C2C(=O)c3ccccc3C2=O)c(OC)c1	0.6	nt

# (more compounds)
canonical_smiles	BasE inh	LANA-nucl inh
O=C(COc1ccc(Br)cc1)NC1CC1	0.8	-1.3
CC1(C)Cc2cccc(OCC(=O)NC3CC3)c2O1	3.9	nt
Nc1nc(N)nc(CN2C(=O)NC(c3ccccc3)(c3ccccc3)C2=O)n1	4.9	nt
CCN1CCN(C(=O)CCSc2ccc(C)cc2)CC1	0.5	-0.5
C(=N\NC1=NCCCCC1)/c1ccc2c(c1)OCO2	1.9	nt
c1ccc(CCCc2nn3c(-c4cccs4)nnc3s2)cc1	0.3	-0.13
COc1ccc(N2CC(NC(=O)N3C(C)CCCC3C)CC2=O)cc1 (stereo not given)	-0.5	-1
N#C/C(=C\Nc1ccccn1)C(=O)C1CC1	2.0	0.34
CCCC(C)C(=O)Nc1nc2ccccc2s1 (stereo not given)	0.4	-0.18
FC(F)(F)c1cnc(N2CCN(CCOCc3ccc(Cl)cc3)CC2)c(Cl)c1	nt	-0.51
CN(C(=O)CSc1nc2ccccc2n1CCC#N)c1ccccc1	-1.1	nt
Cc1nc(/N=C(\N)NC(=O)NC2CCCCC2)nc2ccccc12	-1.0	nt
CC1CC(=O)Nc2ccccc2N1S(=O)(=O)c1cccc2nonc12 (stereo not given)	-2.2	0.69
O=S(=O)(/C=C/c1ccccc1)N1CCN(c2ncc(C(F)(F)F)cc2Cl)CC1	-0.9	nt
CN(C)S(=O)(=O)c1ccc(SCC(=O)N2CCNC2=O)nc1	0.0	nt
Cc1ccc2cc(CN(CCO)C(=O)NCc3ccccc3)c(=O)[nH]c2c1	-1.9	0.72
O=c1cc(O)c2sc(SCCN3CCOCC3)nc2[nH]1	-0.1	1
Cn1[nH]c(Nc2ccccc2Cl)c(N=Nc2ccccc2)c1=O	0.5	0.17
Cc1c(Cl)c(-c2n[nH]c(=S)n2Cc2ccco2)nn1C	1.3	-0.26
CSc1scc2c1-c1nc(SCC(=O)C(C)(C)C)ncc1CC2	0.4	nt
C=CCn1c(=O)[nH]c(=O)c2c(N)c(C(=O)c3ccc(OC)cc3)sc21	-2.0	nt
O=C(NC1CC1)c1cc2c(ccc3ccccc32)oc1=O	2.4	-0.057
CCN(CC(=O)NCc1ccc(F)cc1)C(=O)c1ccc(C)o1	5.6	nt
C/C(=N\NC(=O)c1ccoc1C)c1cccc2ccccc12	2.0	-0.3
COc1ccc2c(c1)nc(SCc1ccccc1)n2C	0.2	-0.39
C=CCN(CC=C)C(=S)Nc1ccc(OC)cc1	3.8	nt
O=C(Cc1csc(N2CCCC2=O)n1)Oc1ccc2c(c1)OCO2	1.1	nt
COc1ccc(CNCc2ccc3c(c2)OCO3)cc1	2.0	0.13
CCn1c(=O)c(C(=O)CSc2nnnn2Cc2cccs2)c(N)n(Cc2ccccc2)c1=O	0.3	nt
CC1(C)Oc2ccc(C(=O)Nc3ccccc3)cc2N(CC(=O)N2CCCC2)C1=O	-0.3	-0.75
CC1CCC(NC(=O)C(C)n2ncn3cccc3c2=O)CC1 (stereo not given)	-0.3	-0.26
Cc1[nH]c2ccc(C(=O)OCC(=O)NC3CC3)cc2c1C	-1.6	nt
O=C(Nc1ccc(-c2n[nH]c(=S)o2)cc1)c1ccccc1	8.9	0.37
Nc1ncnc2c1ncn2Cc1ccccc1	1.5	0.63
Cc1cc2nc(Sc3ccccc3Cl)cc(=O)n2o1	-2.6	nt
O=C1C2C3C=CC(C3)C2C(=O)N1CN1CCCCCC1 (stereo not given)	-0.2	-0.054
Cc1cccc(C)c1OCC(=O)Nc1c(C)nn(C)c1C	2.2	-0.63
O=C(O)CCNC(=O)c1ccco1	2.1	nt
Cc1cccc(NC(=O)C2c3ccccc3Oc3ccccc32)c1	1.3	nt

# Source: PubChem BioAssay (ICCB-Longwood Screening Facility, Harvard Medical School)
